RN4220 kill: growth inhibition of S. aureus RN4220, primary screen, OD600; inhibition, % (concentration not given with the values); 16 h; 330,000 compounds, 0.33% hits;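 active = z-score of -3 or lower and OD600 up to 0.18 on both plates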;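 note: plate controls were untreated cells for no effect and reference antibiotic for full effect; stock transfer was 100 nL into about 80 µL; one replicate is shown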
PrP 5UTR inh: inhibition of PrP 5' UTR reporter expression; cell-based PrP 5' UTR mRNA reporter, plate reader; inhibition, % (test concentration not listed); 340,000 compounds, 0.35% hits; AID 488862, 2010;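 active = every replicate at 50% or more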;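 note: 0 = median of the neutral control wells; tested in H4 reporter cells; numbers are from one replicate; inactives centre near -14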
Bead autofluor: compound fluorescence in toxin protease inhibitor counterscreen; compound autofluorescence counterscreen, microsphere flow cytometry; active compounds read high; 360,000 compounds, 3.1% hits; fluorescence intensity (no concentration beside the values);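 active = at least 3 SD above the mean of all compounds, about 16000 in these data; inconclusive = too few beads counted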;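 note: 100 nL of 1 mM stock went into each well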
ugtP null kill: growth inhibition of ugtP-null S. aureus, primary screen, RN4220 ugtP deletion, OD600; 16 h; some inactives read as strong as hits; growth inhibition, % (test concentration not listed); 330,000 compounds, 0.54% hits; AID 1259309, 2017;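 active = z-score under -3 and OD600 up to 0.15 on both plates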;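 note: plate controls were untreated wells for no effect and antibiotic for full effect; wells of about 80 µL received 100 nL stock; the first replicate is given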
BJeLR lethal: MLPCN primary cell-based screen for lethality selective to Ras in HRASV12 cells; BJeLR (HRASV12) viability, CellTiter-Glo ATP luminescence, 48 h; reference of the scale not given here; AID 1554, 2009; 300,000 compounds, 0.17% hits; inhibition, % (no concentration beside the values);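 active = replicate mean above 50%; inconclusive = above 50% but judged a plate artefact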;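 note: 50 nL library stock added to about 25 µL; numbers are from one replicate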
Mtb hypoxia rep: PubChem AID 1159583; 300,000 compounds, 0.1% hits; fluorescence inhibition, % (concentration not given with the values); M. tuberculosis hypoxia-regulated fluorescent reporter, fluorescence;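 active = 35 to 45% if threefold the growth effect, above 45% if 1.5-fold the growth effect; inactive = the rest, general growth blockers included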;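 note: wells of about 50 µL received 100 nL stock; 0% = vehicle wells and 100% = reference inhibitor wells; whole bacteria with a GFP reporter of the hypoxia response; strong numbers were not always called active; many hits fall short of the cut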
Mtb hypoxia rep growth: second read-out of Mtb hypoxia rep, no call of its own (marks repeat the call); growth inhibition, %; measured here: M. tuberculosis growth (absorbance);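 0% = vehicle and 100% = reference antibiotic; read after six days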
* = called active by the depositor; ? = inconclusive; nt = not tested or not shown. The order is random; any-hit rate near 4%.

(1) CC(NC(=O)CSc1n[nH]c(=O)n1C1CC1)C12CC3CC(CC(C3)C1)C2 (stereo not given)
(2) COc1ccc2nc(NNC(=O)COc3ccccc3)sc2c1
(3) NNC(=O)C(=NNc1ccccc1)S(=O)(=O)c1ccc(Cl)cc1
(4) CCCCCC(=O)NNC(=O)Nc1ccccc1
(5) N#CCC(=O)NN=Cc1cc(Br)ccc1OC/C=C/c1ccccc1
(6) COc1ccc(Cc2nnc(Nc3c(C)cccc3C)o2)cc1OC
assay / compound | 1 | 2 | 3 | 4 | 5 | 6
RN4220 kill | 4.0 | 6.6 | 21 | 3.0 | 4.2 | 1.5
PrP 5UTR inh | -14 | -22 | nt | -9 | nt | -22
Bead autofluor | 3798 | 4253 | nt | 2618 | nt | 3023
ugtP null kill | -3 | 12 | -5 | 3 | 7 | -6
BJeLR lethal | -11 | -9 | nt | -6 | nt | 0
Mtb hypoxia rep | 5 | 4 | -4 | 5 | 10 | 9
Mtb hypoxia rep growth | 4 | 11 | 4 | 9 | 7 | 11

(7) CCN1C(=O)C2C(c3ccc(-c4ccc(OC)cc4)c(OC)c3)N3CCCC[C@@]3(C(=O)OC)C2C1=O (stereo not given in full)
(8) COCCNC(=O)C(c1cccs1)N(C(=O)Cn1nnc2ccccc21)c1cccc(C)c1 (stereo not given)
(9) O=C(N/N=C/c1cccs1)c1cccc2cc[nH]c12
(10) O=S(=O)(NC1CC1)c1ccc(S(=O)(=O)N(Cc2ccccn2)C2CC2)cc1
(11) CCOc1cc(/C=N/N=C(/N)c2nonc2N)cc(Br)c1OCc1ccc(Cl)cc1
(12) CCN(CC)C(=O)c1ccccc1NC(=O)CN1C(=O)c2ccccc2C1=O
assay / compound | 7 | 8 | 9 | 10 | 11 | 12
RN4220 kill | -0.5 | 3.7 | nt | 6.7 | nt | 2.8
PrP 5UTR inh | nt | -14 | -28 | -2 | -16 | -11
Bead autofluor | nt | 4985 | 11027 | 3579 | 9465 | 4459
ugtP null kill | 10 | 1 | nt | 1 | nt | 5
BJeLR lethal | nt | -6 | 12 | 14 | -9 | 2
Mtb hypoxia rep | 5 | nt | nt | 7 | nt | 16
Mtb hypoxia rep growth | 3 | nt | nt | -6 | nt | 0

(13) C=CCn1c(COc2cc(C)ccc2C(C)C)nnc1SCC(=O)c1c(N)n(C)c(=O)n(C)c1=O
(14) CSc1nc2ncnc(N)c2[nH]1
(15) O=C(O)C(Cc1cc(Cl)ccc1Cl)Sc1nc2ccccc2[nH]1 (stereo not given)
(16) O=C(Nc1ccc(F)cc1)c1cc(S(=O)(=O)N2CCOCC2)cs1
(17) C[N+]1(CC(O)c2ccccc2)CCCCCC1 (stereo not given)
(18) CC(=O)c1cccc(OCc2cc(C(=O)N(C)Cc3cnccn3)no2)c1
assay / compound | 13 | 14 | 15 | 16 | 17 | 18
RN4220 kill | -2.0 | 2.7 | -1.1 | 0.2 | 3.2 | 3.2
PrP 5UTR inh | -8 | -7 | -20 | -14 | -20 | -30
Bead autofluor | 1980 | 3592 | 5327 | 6535 | 4117 | 6579
ugtP null kill | -6 | 7 | -3 | 6 | 4 | -1
BJeLR lethal | 3 | 0 | -8 | -3 | 6 | 1
Mtb hypoxia rep | 2 | 15 | 7 | -4 | 10 | 8
Mtb hypoxia rep growth | 6 | 0 | 3 | -1 | -4 | -2

(19) O=C(Nc1ccc2c(c1)OCCO2)C1CC(c2ccccc2Cl)=NO1 (stereo not given)
(20) CCOC(=O)C1CCN(Cc2nnc(-c3cccc(Br)c3)o2)CC1
(21) CCCn1c(C(Cc2ccccc2)NC(=O)COC)nc2ccccc21 (stereo not given)
(22) CC1=C(C(=O)OC(C)C)C(c2coc3ccccc3c2=O)C2=C(CCCC2=O)N1 (stereo not given)
(23) Brc1ccc(/C=N/Nc2ccc3ccccc3n2)cc1
(24) Cc1c(Cl)cccc1NC(=O)CCCn1nc([N+](=O)[O-])cc1C
assay / compound | 19 | 20 | 21 | 22 | 23 | 24
RN4220 kill | -3.9 | 3.5 | -9.1 | 3.9 | nt | 3.3
PrP 5UTR inh | nt | -15 | -6 | -7 | -66 | -40
Bead autofluor | 3503 | 3659 | 6140 | 4332 | 7858 | 3689
ugtP null kill | 12 | -2 | -13 | -12 | nt | 7
BJeLR lethal | -1 | -1 | -7 | nt | 4 | 4
Mtb hypoxia rep | 4 | 9 | 0 | nt | nt | 1
Mtb hypoxia rep growth | -2 | 14 | 3 | nt | nt | 1

(25) CCn1c(CNC(=O)c2cccs2)nnc1SCC(=O)Nc1cc(Cl)ccc1C
(26) CCOC(=O)C1CCN(S(=O)(=O)c2nc3nc(C)cc(C)n3n2)CC1
(27) Cc1nn(-c2ccc(F)cc2)c(Cl)c1/C=C(\CCC(=O)O)c1nc2ccccc2s1
(28) COc1ccccc1-n1cnnc1SCC(=O)c1ccc[nH]1
(29) O=C(CCOc1ccccc1)Nc1ccccc1[N+](=O)[O-]
(30) CCn1cc(C(=O)NCC2CCCO2)c(=O)c2cc(S(=O)(=O)N(C)C3CCCCC3)ccc21 (stereo not given)
assay / compound | 25 | 26 | 27 | 28 | 29 | 30
RN4220 kill | -2.6 | -2.3 | 19 | 1.1 | 4.2 | 8.5
PrP 5UTR inh | -1 | -4 | -20 | -23 | -31 | 2
Bead autofluor | 21203* | 4100 | 11523 | 4471 | 2737 | 5961
ugtP null kill | 0 | 5 | -11 | 0 | 2 | -1
BJeLR lethal | -8 | -2 | -11 | -3 | 8 | -6
Mtb hypoxia rep | 5 | 11 | 16 | 13 | -2 | nt
Mtb hypoxia rep growth | 10 | 11 | 0 | 6 | -8 | nt

(31) CCOC(=O)C1CCCn2c1nc1sc3c(c1c2=O)CCCC3 (stereo not given)
(32) O=c1oc(-c2cccc([N+](=O)[O-])c2)nc2ccccc12
(33) COc1ccc(OCc2cc(C(=O)N(C)C3CCOC3)no2)c(Cl)c1 (stereo not given)
(34) CCS(=O)(=O)N1N=C(c2ccc(NS(C)(=O)=O)cc2)CC1c1ccccc1 (stereo not given)
(35) COc1ccc(C2=NC(CO)(CO)CO2)cc1
(36) COc1cc(C(=O)NCC(=O)NCCN2C(=O)S/C(=C\c3ccccc3Cl)C2=O)cc(OC)c1OC
assay / compound | 31 | 32 | 33 | 34 | 35 | 36
RN4220 kill | 0.4 | -1.2 | 6.3 | 8.1 | -1.2 | 3.9
PrP 5UTR inh | -17 | -9 | -13 | -19 | 10 | -11
Bead autofluor | 23606* | 4021 | nt | 10079 | 2599 | ?
ugtP null kill | 0 | 5 | 19 | -4 | 0 | -1
BJeLR lethal | -15 | -1 | -2 | -3 | -4 | -5
Mtb hypoxia rep | -1 | 4 | 8 | -2 | 11 | -2
Mtb hypoxia rep growth | 15 | 5 | 5 | 4 | 8 | 7

(37) COc1ccc(C(CC(=O)O)NS(=O)(=O)c2ccc3c(c2)N(C(C)=O)CC(C)O3)cc1 (stereo not given)
(38) C/C(CC(=O)NCc1ccco1)=N\NC(=O)Cc1ccc(Cl)cc1
(39) CN(C)S(=O)(=O)c1ccc(S(=O)(=O)NCc2cccs2)cc1
(40) Cn1cccc1/C=C1/SC(=S)N(CC(=O)O)C1=O
(41) CCOC(=O)c1sc(NC(=O)CCN2CCN(CC)CC2)c(C(=O)OCC)c1C
(42) CN(CC(=O)Nc1ccccc1Cl)C(=O)COC(=O)c1ccc([N+](=O)[O-])cc1Cl
assay / compound | 37 | 38 | 39 | 40 | 41 | 42
RN4220 kill | 3.2 | nt | nt | 2.8 | 2.2 | -2.9
PrP 5UTR inh | -20 | -19 | -27 | -41 | -17 | -19
Bead autofluor | 5300 | 3111 | 3761 | 6072 | 2195 | 5427
ugtP null kill | 7 | nt | nt | 9 | -4 | 0
BJeLR lethal | -8 | 0 | 2 | -4 | 5 | 2
Mtb hypoxia rep | 5 | nt | nt | nt | 3 | 10
Mtb hypoxia rep growth | -1 | nt | nt | nt | 8 | 9

(43) CC(=O)c1ccc(N2Cc3ccccc3/C2=N\C(=O)Nc2ccc(Cl)cc2)cc1
(44) Cc1c(CNC2CCCC2)c(C(=O)O)c(C)n1Cc1ccccc1
(45) COc1ccc(CNC(=O)CS(=O)(=O)Cc2nc(-c3cccc(OC)c3)oc2C)cc1
(46) C=CC[n+]1c(-c2ccc(Cl)cc2Cl)csc1Nc1ccc(NC(C)=O)cc1
(47) CC(C)c1cc(=O)n2[nH]c(N)nc2n1
(48) COc1cccc(Nc2cc(C)c3ccccc3n2)c1
assay / compound | 43 | 44 | 45 | 46 | 47 | 48
RN4220 kill | nt | -1.1 | 1.7 | -14 | 8.3 | -11
PrP 5UTR inh | -41 | -68 | -12 | 21 | -3 | -20
Bead autofluor | 2497 | 2505 | 4219 | 3512 | 2001 | 3820
ugtP null kill | nt | -2 | 12 | 58 | 10 | -13
BJeLR lethal | 0 | -5 | 11 | 4 | -18 | -4
Mtb hypoxia rep | nt | 11 | 7 | 4 | 3 | -13
Mtb hypoxia rep growth | nt | 4 | -5 | 1 | 4 | -12

(49) Nc1c(C(=O)N2CCOCC2)sc2nc(N3CCOCC3)c3c(c12)CCCC3
(50) CCOC(=O)c1ccccc1NC(=O)COC(=O)C1=COCCO1
(51) CCC1=C(OC(=O)N(CC)CC)N2C(=O)OC(=NCC3CC3)[C@]2(C)C2C1=CCC1C(=O)N(CC(=O)OC)C(=O)C12 (stereo not given in full)
(52) Cc1ccnc(NC(=O)CN2C(=O)c3ccccc3C2=O)c1
(53) CC1CN(C(C)CO)C(=O)Cc2cc(NC(=O)Cc3ccccc3)ccc2OC1CN(C)S(=O)(=O)c1cccs1 (stereo not given)
(54) CC(c1ccccc1)N1C(=O)c2ccccc2C1O (stereo not given)
assay / compound | 49 | 50 | 51 | 52 | 53 | 54
RN4220 kill | 2.8 | -12 | 6.9 | 8.4 | -1.2 | -12
PrP 5UTR inh | -16 | -9 | nt | -16 | nt | -15
Bead autofluor | 3899 | 3474 | nt | 2703 | nt | 6529
ugtP null kill | 0 | 1 | 1 | 2 | -2 | -8
BJeLR lethal | 2 | -2 | nt | -5 | nt | -8
Mtb hypoxia rep | 11 | 13 | 17 | 2 | -4 | 6
Mtb hypoxia rep growth | -8 | 1 | 4 | 2 | 14 | 10

(55) CCC1Sc2ccccc2N(CC(=O)NC2CC2)C1=O (stereo not given)
(56) CCCCN1C(=O)C(O)(CC(=O)c2ccco2)c2cc(Br)ccc21 (stereo not given)
(57) Cn1c(-c2ccccc2F)cc2onc(-c3ccccc3)c2c1=O
(58) Cc1cc(Cl)c(S(=O)(=O)NCc2cccnc2)cc1OCC(N)=O
(59) CC(C)[C@H](NC(=O)c1ccco1)C(=O)OCC(=O)N1CC(=O)Nc2ccccc21
(60) CCCCN(C)CCCNC(=O)CC1Oc2ccccc2NC1=O (stereo not given)
assay / compound | 55 | 56 | 57 | 58 | 59 | 60
RN4220 kill | 0.7 | 15 | 2.0 | 0.1 | 8.2 | 1.2
PrP 5UTR inh | -4 | -14 | -5 | -15 | -28 | -24
Bead autofluor | 4301 | 4133 | 4175 | 4596 | 4093 | 5845
ugtP null kill | 1 | -3 | 0 | 7 | 4 | 5
BJeLR lethal | -9 | 4 | nt | -9 | 2 | -2
Mtb hypoxia rep | 3 | -7 | 5 | nt | -15 | nt
Mtb hypoxia rep growth | -2 | -7 | -1 | nt | -14 | nt

Assay outcomes deposited in PubChem by several laboratories.
